# Compound activity (PubChem)
# HepG2 viability = viability loss in HepG2 hepatoma cells – cell-based, ATP luminescence, cherry-pick, activator set 2, cytotoxicity control, dose response (AID 1053143); HepG2 viability, CellTiter-Glo ATP luminescence, 72 h; activity change, negative = cytotoxicity, % at the top dose, mostly 26 µM; hits show AC50 in µM; 3,400 tested, 3.7% active;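 active = fitted AC50 at most twice the highest valid dose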;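 note: 0 = neutral control and -100 = positive control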
# * = called active by the depositor; [ ] = another dose, or the depositor's remark.
SMILES,HepG2 viability
CCOc1ccccc1-c1nc(-c2ccc(C)nc2OC)no1,-12%
Cc1ccc(C)c(OCc2cc(C(=O)N3CC[C@H](O)C3)no2)c1,-12%
Cc1ccc(C(=O)CSc2ccccc2C(=O)O)cc1,-8%
O=C(Nc1ccccc1)Nc1ccc(-n2ccc(C(F)(F)F)n2)cc1,14%
CC(=O)Nc1ccc(/C=N/Nc2nc3ccccc3s2)cc1,-1%
COc1ccc(NC(=O)N2CCCc3ccccc32)cc1,-6%
CCOC(=O)c1csc(NC(=O)c2ccccc2)n1,-14%
CCc1nnc(NC(=O)CSc2nc3c(cc2C#N)CCC3)s1,0%
Cc1ccc2oc(Nc3nc(C)c(C)c(C)n3)nc2c1,-2%
O=C(Cc1noc2ccccc12)Nc1ccccn1,-8%[12 µM]
CC(C)c1ccc(OCc2nc(-c3ccccn3)no2)c(Br)c1,-13%
CCc1sc(C(=O)Nc2ccc3c(c2)OCCO3)cc1Br,-20%[12 µM]
O=C(Nc1ccc(Cl)cc1)c1cccs1,-10%
CN(C(=O)CSc1nc2ccccc2o1)C1CCCCC1,10%
C=CCNc1nc(-c2ccc3c(c2)OCCO3)cs1,-18%
COc1ccc(/C=C(/NC(=O)c2ccccc2Cl)C(=O)O)cc1,-7%
Cc1ccc(NC(=O)Nc2ccccc2)c(Br)c1,-8%
COCCN1CCN(C(=O)c2cc(COc3ccc(Cl)cc3OC)on2)CC1,0%
O=C(N/N=C/c1cccc2ccccc12)c1cccs1,-5%
c1ccc(Cn2cc(CSc3ccccc3)nn2)cc1,2%
O=C(O)c1cc(N/N=C/c2ccc(-c3ccccc3)cc2)ccc1Cl,-3%[6 µM]
O=C(O)c1ccc2c(c1)C(=O)N(c1ccc(/C=C/C(=O)c3ccccc3)cc1)C2=O,-12%
Fc1cccc2sc(Nc3nc4ccccc4s3)nc12,-12%
Nc1ccccc1-n1cccc1,-1%
Cc1ccc(C(=O)CC(SCC(=O)O)c2ccc([N+](=O)[O-])cc2)cc1 (configuration not stated),-15%

# Other results follow.
SMILES,HepG2 viability
CCN1CCN(c2cc(C)c3cc(NC(=O)c4cc(OC)cc(OC)c4)ccc3n2)CC1,17µM*
COc1ccc2nc(-c3ccccc3)[nH]c2c1,-29%
Cc1ccccc1Nc1nc(N)c2ccccc2n1,26µM*
CC1CCC(NC(=O)C(=O)Nc2ccc3c(c2)OCO3)CC1 (configuration not stated),-9%
c1ccc([C@H]2CN3C(=N2)Sc2ccccc23)cc1,-22%[12 µM]
CC(C)C(=O)Nc1ccc(-c2nc3ncccc3o2)cc1,17%
c1csc(-c2ccc(N3CCOCC3)nn2)c1,26µM*
CC(=O)c1ccc(OCc2cc(C(=O)N3CC[C@@H]4CCCC[C@H]4C3)no2)cc1,10%
CCC1CCCCN1C(=O)CSc1nnc(-c2ccco2)o1 (configuration not stated),-4%
O=C(NC1CCCCCCC1)c1ccc2c(c1)OCO2,-17%
Cc1n[nH]c(=O)nc1N/N=C/c1ccco1,14%
Cc1c(Cl)cccc1NC(=O)CCCN1C(=O)c2cccnc2C1=O,3%
COc1cc(C2C(C#N)=C(N)OC3=C2C(=O)CC(C)(C)C3)cc([N+](=O)[O-])c1O (configuration not stated),-15%
COc1ccc(N=c2cc(-c3ccc(OC)cc3)oc3ccccc23)cc1,3%[12 µM]
Cc1ccnc(NC(=O)Nc2ccc(Br)cc2Cl)c1,-6%
Cc1sc2ncnc(SCC(=O)c3cccs3)c2c1C,14%
Cc1ccc(NC(=O)/C=C/c2ccc([N+](=O)[O-])s2)cc1,22%
COc1cc(OC)cc(-c2noc(-c3csc([C@H]4C[C@H](O)[C@@H](CO)O4)n3)n2)c1,-13%
O[C@@H]1COC(Nc2ccc(N=Nc3ccccc3)cc2)C[C@@H]1O (some centres not stated),2%
N=c1oc2ccccc2cc1C(=O)Nc1ccc(F)cc1,-6%
CC(C)CC1NC(=O)N(CC(=O)c2ccc3c(c2)OCCO3)C1=O (configuration not stated),5%
COc1cccc(C(=O)Nc2nc(C)cs2)c1,-14%
O=C(Nc1ccc(-c2cnco2)cc1)c1ccc(F)cc1F,8%
CCCC(=O)c1ccc(N2CCC(C)CC2)c(F)c1,-4%
c1cc(-c2cc3cc(N4CCOCC4)ccc3o2)cs1,3%

# Further results follow.
SMILES,HepG2 viability
Cc1cccc(Nc2nc(-c3ccc(F)c(C)c3)cs2)n1,-6%
COc1cc2sc3cc(NCc4ccc(C)o4)ccc3c(=O)c2cc1OC,-19%
CCCCn1c(N)c(N(Cc2ccccc2OC)C(=O)CC2OC(=O)c3ccccc32)c(=O)[nH]c1=O (configuration not stated),-6%[12 µM]
CC(C)Oc1ccc(C(=O)OCC(=O)c2ccc[nH]2)cc1,-11%
CCN(CC(=O)Nc1c(F)cccc1F)C(=O)CNC(=O)c1cccs1,-1%
C/C(=N/O)c1no[n+]([O-])c1/C(C)=N\O,-7%
Cc1ccc(C(=O)CCC2CCCCC2=O)cc1 (configuration not stated),-8%
COc1ccc(O)c(/C=N/N2CCCCC2)c1,-21%
COc1cc2ccccc2cc1C(=O)Nc1ccccc1C,-15%
Nc1ccc2nc(-c3cc(Cl)c(N)c(Cl)c3)[nH]c2c1,-29%
O=C(CCn1cccn1)N1CCCC(N2CCN(c3cccc(C(F)(F)F)c3)CC2)C1 (configuration not stated),-5%
Cc1nc2ccc(NC(=O)c3ccc(Cl)s3)cc2s1,10%
Cc1ccc(SCC(=O)NC(=O)NCCC(C)C)c(C)c1,-19%
O=C(CNc1ccc2ccccc2c1)N/N=C/c1ccc(OC(=O)/C=C/c2ccco2)cc1,2%
O=C1Cc2c([nH]c3ccc(Br)cc23)-c2ccccc2N1,-11%
CCOc1ccc(NC(=O)NC2CC(=O)N(c3ccc(OC)cc3)C2)cc1 (configuration not stated),-15%
CCn1cnc2c(Nc3cccc(Cl)c3)nc(C#N)nc21,10%
O=C(O)c1ccc2c3n(nc2c1)-c1ccc(Cl)cc1CO3,-30%
CCOC(=O)CSc1nc2ccccc2c(=O)n1NC(=O)c1ccccc1,52%
Cc1nn(-c2ccc3ccccc3c2)c(=O)c2ccccc12,7%
CCC(C)(C)NC(=O)/C=C/c1cnc2ccccc2n1,-17%
CC(C)(C)NC(=O)CSc1nc(-c2ccc(F)cc2)cs1,15%
O=C(Nc1ccc(Cl)cc1)OCc1ccccn1,-20%
COc1ccccc1/C=N/Nc1nncc2ccccc12,-6%
CCC(=O)Nc1sc2c(c1C(N)=O)CCN(Cc1ccccc1)C2,27%

# Continued:
SMILES,HepG2 viability
CC1(C(=O)NS(=O)(=O)c2cccc(C#N)c2)CCN1C(=O)C1CCCCC1 (configuration not stated),-10%
Cc1ccc2nc(-c3cccc(Br)c3)c(Cc3cccc(Cl)c3)n2c1,1%
c1ccc(-n2ncc3c(NCc4cccs4)ncnc32)cc1,16%
COC(=O)[C@@H](C)NC(=O)c1ccc2oc(CCc3ccccc3)nc2c1,-12%
CCOC(=O)c1sc2nc3c(cc2c1N)COC(C)(C)C3,5%
NC(=O)c1ccccc1N(Cc1ccccc1)S(=O)(=O)c1ccccc1,-10%
O=C(N/N=C/c1cccc([N+](=O)[O-])c1)c1ccc2c(c1)OCCO2,-18%
CCn1c(SCC(=O)NCc2ccc3c(c2)OCO3)nc2c(c1=O)SCC2,-1%
CCCC(=O)N1c2ccc(-c3csc(N)n3)cc2CC1C (configuration not stated),10%
Nc1nc(-c2cc(-c3ccccc3)no2)cs1,-25%
O=C(NCCn1ccc2ccccc21)c1ccc2c(c1)OCO2,-19%[12 µM]
c1ccc(-c2cnc(-c3ccccn3)nn2)cc1,26µM*
CCOC(=O)C(NC(=O)c1ccc(F)cc1)(Nc1sc2c(c1C(N)=O)CCC2)C(F)(F)F (configuration not stated),-15%
C#CCOC(=O)CCCC(=O)Nc1ccccc1OC,-17%
CC(=O)Nc1ccc(C(=O)/C=C/c2ccc[nH]2)cc1,2%
CO/N=C/CC(=O)c1ccc(OC)cc1,1%
COc1cccc(NC(=O)Cn2c(=O)oc3cc(S(=O)(=O)N4CCCC4)ccc32)c1,-9%
CC1(C)CC(=O)C(N=Nc2ccc(Br)cc2)=C(O)C1,-9%
CCOc1ccc(C2C(C(=O)c3ccco3)=C(O)C(=O)N2Cc2cccnc2)cc1 (configuration not stated),-10%
Cc1ccc(F)c(CNC(=O)C2(C)CCCN2C(=O)C(C)C)c1F (configuration not stated),-12%[12 µM]
COc1ccc(NC(=O)Nc2nnc(-c3cccs3)s2)cc1,4%
COC(=O)N=Nc1c(O)[nH]c2ccc(Br)cc12,-11%
Cc1ccc(C)c(NC(=O)c2cc3ccccn3n2)c1,-12%
CC(C)C1Oc2ccccc2C(=O)N(CC(=O)c2ccc3c(c2)OCCO3)C1=O (configuration not stated),-4%[12 µM]
O=C(Nc1ccc(Cl)cc1)Nc1ccccc1C(=O)NCc1ccco1,-2%

# By substructure, those above with a Cl atom (13)
SMILES,HepG2 viability
O=C(Nc1ccc(Cl)cc1)c1cccs1,-10%
COc1ccc(/C=C(/NC(=O)c2ccccc2Cl)C(=O)O)cc1,-7%
COCCN1CCN(C(=O)c2cc(COc3ccc(Cl)cc3OC)on2)CC1,0%
O=C(O)c1cc(N/N=C/c2ccc(-c3ccccc3)cc2)ccc1Cl,-3%[6 µM]
Cc1c(Cl)cccc1NC(=O)CCCN1C(=O)c2cccnc2C1=O,3%
Cc1ccnc(NC(=O)Nc2ccc(Br)cc2Cl)c1,-6%
Nc1ccc2nc(-c3cc(Cl)c(N)c(Cl)c3)[nH]c2c1,-29%
Cc1nc2ccc(NC(=O)c3ccc(Cl)s3)cc2s1,10%
CCn1cnc2c(Nc3cccc(Cl)c3)nc(C#N)nc21,10%
O=C(O)c1ccc2c3n(nc2c1)-c1ccc(Cl)cc1CO3,-30%
O=C(Nc1ccc(Cl)cc1)OCc1ccccn1,-20%
Cc1ccc2nc(-c3cccc(Br)c3)c(Cc3cccc(Cl)c3)n2c1,1%
O=C(Nc1ccc(Cl)cc1)Nc1ccccc1C(=O)NCc1ccco1,-2%

# Further entries:
SMILES,HepG2 viability
Nn1c(SCc2ccccc2F)nnc1-c1cccnc1,-4%
Cc1cc(OCc2ccc(C(=O)NN=C3CCCC3)cc2)ccc1Cl,6%
COc1ccc(/C=N/Nc2ccc(C(=O)O)cc2)cc1OC,-8%
O=C(/C=C/c1ccccc1)Nc1cccnc1,-1%
Cc1ccc(-c2cn3c(=O)cc(C)[nH]c3n2)cc1,-10%
N/C(=N\NC(=O)Nc1ccccc1)c1ccccn1,-15%
CCCCOc1ccc(C(=O)N=c2sccn2C)cc1OC,2%
CCOC(=O)C1(C)C=C(Nc2cccc(OC)c2)C(=O)N1c1ccccc1 (configuration not stated),5%
Cc1cc(C)n(-c2nnc3c4ccccc4n(C)c3n2)n1,-16%
CN(C)c1ccc(N=Nc2ccc(S(N)(=O)=O)cc2)cc1,-4%
Cc1ccc2c(c1)-c1nc3ccccc3cc1C2=NC1CCCCC1,22µM*
COc1ccc(-c2nc3c4ccccc4[nH]c(=O)n3n2)cc1,-15%
Nc1ccccc1C(=O)/C=C/c1ccc2c(c1)OCO2,-19%
O=C(CN1C(=O)CCC1=O)Nc1nc(-c2ccc3ccccc3c2)cs1,-5%[12 µM]
CC(C)(C)c1ccc(/C=C/C(=O)N2CCCCC2)cc1,13%
c1ccc(COc2ccc3nocc3c2)cc1,-22%
Nc1c(-c2ccccc2)cnc2cc(-c3ccccc3)nn12,4%
Cc1ccc2cc3cc(C(=O)NC4CC4)oc3nc2c1,-19%
Cc1ccc(C(=O)Nc2nc3ccc(Cl)cc3s2)o1,-14%
COc1cccc(/C=N/NC(=O)c2cccs2)c1,4%
CCS(=O)(=O)N1CCc2nc(-c3ccccc3)sc2C1,-8%
O=C(c1nnc(-c2ccncc2)o1)c1ccccc1Cl,-7%
O=c1[nH]ncc(N/N=C\c2ccc(O)cc2O)c1Cl,-23%
N#Cc1nc(-c2ccc(Cl)cc2)oc1NCCc1ccccn1,-13%
Cc1ccc(NC(=O)c2csc3c2CCCC3)cc1,-7%

# Next results:
SMILES,HepG2 viability
COc1cc(C)ccc1OCc1cc(C(=O)N2CCC(c3ccc(F)cc3)C2)no1 (configuration not stated),7%
COc1ccc(-c2nnc(-c3ccc(N)cc3)o2)cc1,43%
Cc1ccc(N=Cc2nc(-c3ccco3)oc2O)cc1,-2%
NC(=S)c1ccc(OCCCc2ccccc2)cc1,-9%
O=C(Nc1nccs1)OCc1ccccc1,-17%
COC1=C/C(=C/c2c(O)c(C#N)c3ccccn23)C=CC1=O,12%
CCc1ccc(NC(=O)c2cccnc2)cc1,5%
Cc1cccc(N=Nc2cnc(N)s2)c1,-9%
O=C(O)c1ccc(COc2ccc3ccccc3c2)o1,-2%
O=c1c2cccc(Cl)c2nc2n1Cc1ccccc1-2,15%
CC1(C(=O)Nc2ccc3c(c2)OCO3)CCN1C(=O)C1(c2ccc(Cl)cc2)CC1 (configuration not stated),15%
CCOC(=O)c1c(C)[nH]c(C(=O)COC(=O)C2(C)CC2(Cl)Cl)c1C (configuration not stated),-4%
Cc1ccc(OCc2cc(C(=O)N3CCN(c4ccccc4)CC3)no2)cc1C,-12%
Clc1ccc(-n2nnc(-c3cccnc3Cl)n2)cn1,-16%
Cc1cccc(Cn2cc(SCC(=O)Nc3nccs3)c3ccccc32)c1,-17%
Cc1ccc(NC(=O)c2snc3ccc(Cl)cc23)cc1C,-6%
O=C(NCC(=O)N1CCC(Cc2ccccc2)CC1)c1ccccc1F,-13%
c1ccc(-c2ccc(-c3ccccn3)s2)nc1,-10%
C=CCn1c2ccccc2c(=O)c2cc(C#CC[C@@H](C)O)ccc21,-26%
O=Cc1c(-c2ccc(Cl)cc2)oc2ccc(O)cc12,-9%
Cc1cc(OCc2ccc(C(=O)n3cccn3)o2)ccc1Cl,2%
Oc1ccc(/C=N/Nc2nccnc2Cl)cc1,14µM*
Cc1cc(C)nc(NC(=O)/C=C/c2ccccc2Cl)c1,-3%
O=C(CN(C(=O)c1cc2c(s1)CCC2)C1CCCC1)NCc1cccs1,-8%
CC(=O)c1ccc(N/C=C\C(=O)c2ccc(C)cc2)cc1,-6%
O=C(Nc1ccc(N2CCCCC2)cc1)c1cncc(Br)c1,-12%
O=C1/C(=C/c2cccc3ccccc23)CCCc2ccccc21,2%

# An excerpt. The share of hits here may be higher or lower than overall.
